High-throughput results deposited in PubChem by several laboratories.
Sa ugtP lethal: growth inhibition of ugtP-null S. aureus, primary screen, RN4220 ugtP deletion, OD600; 16 h; some inactives read as strong as hits; growth inhibition, % (test concentration not listed); actives 0.54% (n = 330,000); AID 1259309, 2017;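 active = z-score under -3 and OD600 up to 0.15 on both plates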;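 also: plate controls were untreated wells for no effect and antibiotic for full effect; wells of about 80 µL received 100 nL stock; the first replicate is given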
Mtb hypoxia rep: PubChem AID 1159583; M. tuberculosis hypoxia-regulated fluorescent reporter, fluorescence; actives 0.1% (n = 300,000); fluorescence inhibition, % (test concentration not listed);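 active = 35 to 45% if threefold the growth effect, above 45% if 1.5-fold the growth effect; inactive = the rest, general growth blockers included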;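 also: wells of about 50 µL received 100 nL stock; 0% = vehicle wells and 100% = reference inhibitor wells; whole bacteria with a GFP reporter of the hypoxia response; strong numbers were not always called active; many hits fall short of the cut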
RN4220 kill: growth inhibition of S. aureus RN4220, primary screen, OD600. 16 h. inhibition, % (test concentration not listed). actives 0.33% (n = 330,000);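 active = z-score of -3 or lower and OD600 up to 0.18 on both plates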;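 also: plate controls were untreated cells for no effect and reference antibiotic for full effect; stock transfer was 100 nL into about 80 µL; one replicate is shown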
PrP 5UTR inh: inhibition of PrP 5' UTR reporter expression; cell-based PrP 5' UTR mRNA reporter, plate reader; inhibition, % (concentration not given with the values); actives 0.35% (n = 340,000);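 active = every replicate at 50% or more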;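 also: 0 = median of the neutral control wells; tested in H4 reporter cells; numbers are from one replicate; inactives centre near -14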
Autofluor counter: compound fluorescence in toxin protease inhibitor counterscreen; fluorescence intensity (concentration not given with the values); actives 3.1% (n = 360,000); compound autofluorescence counterscreen, microsphere flow cytometry; active compounds read high;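 active = at least 3 SD above the mean of all compounds, about 16000 in these data; inconclusive = too few beads counted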;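 also: 100 nL of 1 mM stock went into each well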
BJeLR viability: MLPCN primary cell-based screen for lethality selective to Ras in HRASV12 cells | BJeLR (HRASV12) viability, CellTiter-Glo ATP luminescence, 48 h; reference of the scale not given here | inhibition, % (test concentration not listed) | actives 0.17% (n = 300,000) | AID 1554, 2009;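 active = replicate mean above 50%; inconclusive = above 50% but judged a plate artefact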;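 also: 50 nL library stock added to about 25 µL; numbers are from one replicate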
Mtb hypoxia rep growth: second read-out of Mtb hypoxia rep, no call of its own (marks repeat the call); growth inhibition, %; measured here: M. tuberculosis growth (absorbance);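 0% = vehicle and 100% = reference antibiotic; read after six days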
An asterisk follows results filed as active; u = inconclusive; x = no result given; & = joins results of further samples.

SMILES	Sa ugtP lethal	Mtb hypoxia rep	Mtb hypoxia rep growth	RN4220 kill	PrP 5UTR inh	Autofluor counter	BJeLR viability
O=S(=O)(NN=Cc1ccccc1F)c1ccccc1	0	-13	-7	4.9	x	x	x
O=C(c1ccc(Cl)c(S(=O)(=O)N2CCc3ccccc3C2)c1)N1CCN(c2ccccc2)CC1	-7	5	2	2.6	-23	2515	-1
O=C(Cc1cccs1)N1CCN(S(=O)(=O)c2ccc(F)c(F)c2)CC1	7	3	9	0.1	x	5445	x
CCOC(=O)Cc1csc(NS(=O)(=O)c2ccc(Br)cc2)n1	-3	-2	-13	8.6	-5	4300	-1
CC1(C)OC(=O)C(=NNc2ccccc2[N+](=O)[O-])C(=O)O1	12	2	13	4.2	-13	4742	5
CCCCCC(=O)NN=C(C)c1ccc(NC(=O)c2ccco2)cc1	-11	4	9	-23	x	x	x
COc1ccc(CCC(C)=NNC(N)=O)cc1	10	14	3	1.7	x	x	x
NC(=O)NC(=O)COC(=O)/C=C/c1cccs1	-1	7	6	1.5	-13	4499	0
Cc1ccc(C)c2[nH]c(=O)c(CCNC(=O)c3cccs3)cc12	15	-4	4	2.9	-7	5914	-8
CN(C)CC/C=C1/c2cc(F)ccc2Sc2ccc(Cl)cc21	-7	15	12	0.5	-22	x	-5
Nc1cc(=O)[nH]c(SCCSc2ccc(F)cc2)n1	7	7	4	1.3	5	4529	-7
COc1ccc(CCn2ccc(O)c(Cc3ccc(Cl)cc3Cl)c2=O)cc1OC	14	7	9	0.7	-12	4898	-2
O=S(=O)(c1ccccc1)n1nc(-c2ccccc2)nc1NCc1ccco1	12	x	x	2.8	-12	4866	-6
COc1ccc(CC(=O)NNC(=O)c2ccco2)cc1OC	5	0	-4	1.1	-12	3043	1
COc1ccc2nc(NC(=O)CSC3=NCCS3)sc2c1	7	10	0	-16	-26	3156	-1
COc1ccc(OC)c(NC(=O)C(=O)/C=C(\O)c2cc(OC)ccc2OC)c1	x	x	x	x	-18	9280	0
CC(C)(C)c1ccc(C2(C)NC(=O)N(CC(=O)Nc3ccc4c(c3)OCO4)C2=O)cc1 (stereo not drawn)	-1	14	11	11	-1	4956	-3
CC(C)(C)c1ccc(C(=O)Nc2ccc(C(=O)N3CCCC3)cc2)cc1	-9	4	6	-6.5	-9	5680	-24
Cc1ccc(NC(=O)CSc2nnc(-c3ccc(S(=O)(=O)N4CCOCC4)cc3)n2C)cc1	0	4	12	2.6	-9	19086*	0
CCCC(C)NC(=O)c1ccccc1SC (stereo not drawn)	-2	19	9	3.5	2	3471	-5
NC(=NC(=O)c1cccc(C(F)(F)F)c1)c1ccc(C(F)(F)F)cn1	-1	-6	-5	-0.6	-55	u	1
COc1cc(CNC2CCCCCCC2)cc(Br)c1OCC#N	-6	-1	14	0.6	-16	2080	3
O=c1[nH]c(CN2CCN(C/C=C/c3ccccc3)CC2)nc2cc(Cl)ccc12	2	6	8	4.6	-31	10396	8
O=C(CCCN1C(=O)/C(=C\c2ccccc2)SC1=S)Nc1ccccc1O	5	10	2	-7.7	-8	4718	1
O=[N+]([O-])c1ccc(OCn2cncn2)cc1	1	4	4	4.4	-19	3651	3
COc1ccc(C(CNC(=O)COc2ccc(F)cc2Cl)N2CCOCC2)cc1 (stereo not drawn)	1	2	0	3.9	-13	x	x
COc1ccc(C=NNC(=O)CCn2cnc(-c3ccccc3)c2-c2ccccc2)cc1OC	-4	1	-1	1.1	x	x	x
COc1ccc(CNC(=O)OCCN2CCN(Cc3ccccc3)CCC2=O)cc1	-3	1	14	0.1	-22	4063	13
O=C(CSc1nnc(-c2ccc(O)cc2)n1Cc1ccccc1)NNC(=O)c1ccc(Br)cc1	-4	3	0	0.4	2	2440	-8
N#Cc1c(SCC(=O)Nc2ccc(Cl)cc2Cl)sc2c(O)cc(=O)[nH]c12	-2	-9	1	2.7	-31	3868	-1
CCn1c(NC(=O)c2ccccc2)c(-c2cccs2)c(=O)c2ccccc21	16	8	4	4.8	-16	15947	-9
O=c1c2ccccc2nc(-c2ccccc2)n1/N=C/c1ccc([N+](=O)[O-])cc1	x	x	x	x	-31	10531	-12
O=c1cc(-c2ccc(Cl)cc2)[nH]c2ccccc12	-9	4	4	-15	x	x	18
CCN(CC)c1ccc(C=NN2CCN(Cc3ccc(C)cc3)CC2)c(O)c1	35	5	10	-2.0	x	x	x
Cc1cccc(Oc2nc(-c3ccccn3)nc3ccccc23)c1	-4	-10	-1	9.1	-71	3509	4
CC(C)Oc1ccc(C(CC(=O)O)c2ccc(F)cc2)cc1 (stereo not drawn)	14	5	3	1.5	-16	4252	-2
O=C1[C@@H]2C(c3cccnc3)=NO[C@@H]2C(=O)N1c1ccc(Br)cc1	1	13	7	7.0	-9	4582	-1
CN(C)/C=N/NC(=O)c1ccccc1	x	x	x	x	-17	5933	-4
CCOc1ccc(/C=N/NC(=O)C(C)N(c2ccc(OC)cc2)S(C)(=O)=O)cc1 (stereo not drawn)	x	x	x	x	-25	10813	-4
CCCc1ccc(C(=O)Cn2nc(C(=O)O)c3ccccc3c2=O)cc1	0	3	3	2.3	-24	4033	2
CC(C(=O)NCc1ccc(S(C)(=O)=O)cc1)C1C[C@]1(C)C(NC(=O)OCc1ccccc1)c1ccccc1 (stereo partly drawn)	4	1	12	4.5	x	x	x
Cc1ccc(N(CCC#N)C(=O)COC(=O)c2ccccc2SCC(=O)N2CCCC2)cc1	0	-5	5	1.7	-1	5698	1
O=C(CCN1CCCCC1)c1ccc2c(c1)OCCO2	-7	1	6	2.7	-14	12721	3
O=C(Cn1cncn1)N1CCN(c2ccc(F)cc2)CC1	1	3	7	2.7	-10	3193	8
COC(=O)c1ccc(CSc2ccc3nnc(-c4ccccn4)n3n2)o1	11	6	3	2.0	-14	5176	-11

A draw from above in order of SMILES length, descending:
SMILES	Sa ugtP lethal	Mtb hypoxia rep	Mtb hypoxia rep growth	RN4220 kill	PrP 5UTR inh	Autofluor counter	BJeLR viability
O=c1c2ccccc2nc(-c2ccccc2)n1/N=C/c1ccc([N+](=O)[O-])cc1	x	x	x	x	-31	10531	-12
CCOc1ccc(/C=N/NC(=O)C(C)N(c2ccc(OC)cc2)S(C)(=O)=O)cc1 (stereo not drawn)	x	x	x	x	-25	10813	-4
O=C(Cn1cncn1)N1CCN(c2ccc(F)cc2)CC1	1	3	7	2.7	-10	3193	8
O=C(CCN1CCCCC1)c1ccc2c(c1)OCCO2	-7	1	6	2.7	-14	12721	3

Later entries:
SMILES	Sa ugtP lethal	Mtb hypoxia rep	Mtb hypoxia rep growth	RN4220 kill	PrP 5UTR inh	Autofluor counter	BJeLR viability
COCCNC(=O)CS(=O)Cc1nc(-c2ccccc2C)oc1C (stereo not drawn)	-4	0	7	-6.8	-26	5847	-8
Cc1ccc(Nc2nc(-c3cccnc3)cs2)cc1Cl	-13	0	6	-8.8	-64	3562	5
NC(=O)N1OCC2COc3ccc4ccccc4c3C21 (stereo not drawn)	-6	4	5	4.2	-15	4083	-1
COC(=O)C(Cc1ccccc1)NC(=O)CCNC(=O)c1ccc(Br)cc1 (stereo not drawn)	17	-3	0	3.0	-12	5176	-1
COc1ccc(NS(=O)(=O)c2ccc(C)c(C(=O)N3CC(C)OC(C)C3)c2)cc1 (stereo not drawn)	10	-1	-2	5.5	1	4580	-3
CC[C@]12c3[nH]c4ccc(OC)cc4c3CCN1C(=O)C(CC(=O)NCCCN(C)C)C[C@@H]2C(=O)N1CCN(C(=O)c2ccco2)CC1 (stereo partly drawn)	6	-6	1	4.3	-6	3304	x
COc1ccc(N2C(=O)C3CCCN3C2c2ccc(C)o2)cc1 (stereo not drawn)	3	x	x	-2.9	-13	6102	-6
CC1CN(c2nc(-c3ccccc3)nnc2-c2ccccc2)CC(C)O1 (stereo not drawn)	1	5	4	1.7	-3	x	11
CC(=O)O[C@@H]1CC[C@]2(C)C3CC[C@]4(C)C(=O)[C@H](O)CC4C3[C@@H](OC(C)=O)C[C@H]2C1 (stereo partly drawn)	3	15	4	3.4	-9	4007	x
CCOc1ccc(C(=O)Nc2ccccc2C(=O)O)cc1	-4	-9	-6	14	-26	3990	0
CC(C)(C)OC(=O)CC1CC=CCC(CC(=O)NC(CO)Cc2ccccc2)C(=O)NCC(c2ccccc2)OC1=O (stereo not drawn)	1&0&1&8&4&-15	3&9&5&12&-3&-3	-2&7&8&15&4&1	3.0&9.0&1.7&13&8.7&-0.9	x	x	x
C[C@H](CO)N1C[C@H](C)[C@@H](CN(C)S(=O)(=O)c2ccc(F)cc2)Oc2c(NC(=O)NC3CCCCC3)cccc2C1=O	-12	7	9	-14	-21	4212	x
O=C(OCCNC(=O)c1cc2ccccc2oc1=O)c1cccnc1	1	-6	8	2.6	66*	9795	-6
Cc1cccnc1NC(=O)CNC(=O)C1CCCCC1	8	11	9	5.6	-18	3491	x
Cn1c(=O)c2c(ncn2CC(COCc2ccccc2)OCc2ccccc2)n(C)c1=O (stereo not drawn)	11	-2	-6	4.3	0	3820	3
CCCOc1ccc(N2C(=O)CC(N3CCN(S(=O)(=O)c4ccccc4)CC3)C2=O)cc1 (stereo not drawn)	0	13	10	1.1	-14	10324	0
O=C(Nc1nnc(-c2ccc(Cl)cc2)o1)c1ccccc1Br	98*	7	7	84	-2	5252	-4
O=C(Cc1cccs1)NCc1cccnc1	0	2	5	5.5	-5	3375	0
COCCn1c(C)cc(C(=O)CSc2nc3ccccc3s2)c1C	-1	0	0	2.6	20	2219	3
CCOC(=O)c1cc(-c2cc(OC)c(OC)c(OC)c2)nc2c1c(=O)[nH]c(=O)n2Cc1ccccc1	-2	10	11	1.4	-18	3884	4
O=C(NC1CC2CCC(C1)N2Cc1nnnn1Cc1ccco1)NC12CC3CC(CC(C3)C1)C2 (stereo not drawn)	-8	-5	7	-1.9	-10	2920	-14
NNC(=O)COc1ncn(-c2ccccc2)n1	2	7	17	0.0	-24	2426	-10
CCc1c(Cl)nc(N)nc1Nc1ccccc1C	6	7	2	5.9	-17	3621	x
Fc1ccc2[nH]c3c(N4CCSCC4)ncnc3c2c1	-17	2	9	-3.7	-7	3344	10
COc1ccc(NC(=O)COC(=O)[C@@H]2CCCN2C(=O)c2cccs2)c(OC)c1	-8	0	-4	1.9	-9	8355	6
NC(=S)N/N=C1\CC(c2ccc3c(c2)OCCCO3)Oc2ccc(F)cc21 (stereo not drawn)	x	x	x	x	-9	u	-9
O=C(Nc1ccccc1)Nc1ccc(Nc2ccccc2)cc1	-3	-1	0	-0.4	x	6711	-5
CC(C)C[C@H](NC(=O)C1CC(=O)N(c2ccc3c(c2)OCO3)C1)C(=O)NC1CCCC1 (stereo partly drawn)	x	x	x	x	0	8218	-1
O=C(CCCNC(=O)c1ccc(Cl)cc1)Nc1ccc(Br)cc1	0	5	2	-0.2	-1	3109	-2
Nc1[nH]c(=O)[nH]c(=O)c1N=Nc1ccc(C(=O)O)cc1	7	7	0	3.6	-13	3615	3
Cc1c(Br)c([N+](=O)[O-])nn1C(C)C(=O)Nc1c(C)n(C)n(-c2ccccc2)c1=O (stereo not drawn)	1	1	2	1.4	-3	7558	-3
COc1ccccc1CNC(=O)CCS(=O)(=O)c1ccc2c(c1)CCCN2C(C)=O	-1	x	x	-1.4	-3	3844	-5
O=C(NC1CCCC1)c1cccc2c1C(=O)c1ccc(C=Cc3ccccc3)cc1S2(=O)=O	11	20	-56	6.5	x	x	x
COc1cc(/C=N/NC(=O)CCNC(=O)c2ccccc2Cl)ccc1O	x	x	x	x	-58	4741	2
CCSc1nsc(NC(=O)Nc2ccccc2F)n1	-9	10	8	8.8	-15	4361	-13
CC(NC(=O)NC12CC3CC(CC(C3)C1)C2)C1CCCO1 (stereo not drawn)	0	3	4	3.0	-10	21432*	1
COc1ccc(-c2cc3nc(C)cc(N4CC(C)CC(C)C4)n3n2)cc1 (stereo not drawn)	49	x	x	-8.2	-14	2428	5

No enrichment for hits; about 4% have a hit in one of these screens.
